# MLL AF4-AF9 inh – inhibitors of AF4 peptide binding to AF9, primary screen, biochemical, AlphaScreen, biotin-AF4 peptide, FLAG-AF9, single point; inhibition, % at 10 µM; hit rate 0.47% among 350,000; AID 651704, 2012;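 active means every replicate reaching a set inhibition limit, whatever the replicate mean, cut at about 25% in these data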;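 further: 0% = plate neutral control median and 100% = total signal loss; the record names both 10 and 1 µM as test concentration; the first replicate is given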
# Target sequence (P42568 whole entry, looked up): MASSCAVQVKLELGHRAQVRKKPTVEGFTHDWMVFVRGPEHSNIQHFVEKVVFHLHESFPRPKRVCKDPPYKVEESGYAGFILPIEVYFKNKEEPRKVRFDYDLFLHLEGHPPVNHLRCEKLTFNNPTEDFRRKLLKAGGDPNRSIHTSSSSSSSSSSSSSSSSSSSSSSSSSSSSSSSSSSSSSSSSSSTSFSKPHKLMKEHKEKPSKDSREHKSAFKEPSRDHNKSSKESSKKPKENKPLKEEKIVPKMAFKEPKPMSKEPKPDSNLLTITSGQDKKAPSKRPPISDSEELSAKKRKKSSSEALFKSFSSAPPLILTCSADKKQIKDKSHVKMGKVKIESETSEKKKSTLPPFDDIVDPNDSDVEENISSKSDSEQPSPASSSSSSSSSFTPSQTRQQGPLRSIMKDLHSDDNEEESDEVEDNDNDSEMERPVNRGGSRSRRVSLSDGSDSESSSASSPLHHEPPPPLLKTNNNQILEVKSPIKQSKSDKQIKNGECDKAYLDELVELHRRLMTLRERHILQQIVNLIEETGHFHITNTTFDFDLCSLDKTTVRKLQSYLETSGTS
# FGF22 binding – binders of human FGF22 protein, primary screen, FGF22 synaptogenesis inhibitor project, biophysical, thermal shift, single point; Fibroblast growth factor 22 (Homo sapiens), Q9HCT0; recombinant FGF22 thermal shift, SYPRO orange fluorescence; percent of sucrose octasulfate shift, DMSO zero; calls only at 9.99 µM; hit rate 1.5% among 340,000;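 active means melting point raised past a set limit in the mean and every replicate; three in four hits are not shown here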
# Target sequence (Q9HCT0 whole entry, looked up): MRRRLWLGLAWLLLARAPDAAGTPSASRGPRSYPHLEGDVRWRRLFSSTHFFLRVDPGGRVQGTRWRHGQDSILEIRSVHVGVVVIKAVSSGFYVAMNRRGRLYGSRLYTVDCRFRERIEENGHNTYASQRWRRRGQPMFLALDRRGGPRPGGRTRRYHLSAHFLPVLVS
# E coli growth – E. coli growth inhibition, primary screen, OD600 | Escherichia coli growth, 23 h; stronger effect = lower value | OD600 absorbance (test concentration not listed) | hit rate 0.21% among 330,000 | AID 1053175, 2014;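 active means OD600 absorbance below the run mean of sample wells minus 3.6 SD, in any replicate, cut at about 0.56 in these data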;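 further: stock transfer was 300 nL into about 60 µL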
# HNF4A DNA FP – change in binding of human HNF4A to DNA, primary screen, biochemical, fluorescence polarization, FITC-DNA; 1 h; hit rate 0.3% among 360,000; Hepatocyte nuclear factor 4-alpha (Homo sapiens), P41235; AID 1224865, 2016; activity change, % at 10 µM; in the data active means activity change above about 30%, passing the limit was not always enough;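 further: controls were the assay level and a saturating level of protein; the project sought stronger binding though the title names inhibitors; some compounds called inactive have numbers as strong as hits; positive values seem to mean higher polarization but the record does not say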
# ALR H2O2 inh – inhibitors of human ALR sulfhydryl oxidase, primary screen, biochemical, H2O2 detection, HRP-luminol luminescence, single point | FAD-linked sulfhydryl oxidase ALR (Homo sapiens), P55789 | purified ALR, DTT oxidation | inhibition, % (test concentration not listed) | hit rate 3.8% among 290,000 | AID 485317, 2010;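 active means mean and each replicate at 75% or more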;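 further: stock transfer was 7.5 nL into about 7.5 µL; 0% = neutral wells and 100% = wells with inactivated enzyme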
# Target sequence (P55789 whole entry, looked up): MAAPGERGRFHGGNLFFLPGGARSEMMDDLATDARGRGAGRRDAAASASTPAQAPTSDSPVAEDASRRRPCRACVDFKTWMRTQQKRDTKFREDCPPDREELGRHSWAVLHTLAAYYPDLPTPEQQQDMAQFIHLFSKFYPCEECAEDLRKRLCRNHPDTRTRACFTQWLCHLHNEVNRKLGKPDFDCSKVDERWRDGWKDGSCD
# Vif A3G – inhibitors of Vif binding to APOBEC3G peptide, primary screen, biochemical, TR-FRET, GST-Vif 1-94, biotin-A3G peptide, dose response retest (AID 1117319) | TR-FRET GST-Vif / biotin-A3G peptide binding; higher % means a stronger effect; test concentration not given here; strong numbers were not always called active | inhibition, %; hits with a dose series show IC50 in µM | hit rate 0.57% among 260,000;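 active means above the screen mean plus three standard deviations and confirmed in dose response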;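 further: Vif residues 1-94 fused to GST binding biotinylated APOBEC3G peptide 110-148; 0% = full assay without inhibitor and 100% = GST in place of GST-Vif; retest series ran down from 100 µM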
# rRNA inh HTS – reduced GFP signal of wild-type E. coli, primary screen, bacterial rRNA inhibitor project, GFP/RFP fluorescence, OD600, single point; E. coli WT GFP vs humanized-ribosome RFP mutants, 24 h; stronger effect = lower value; DMSO median 0, no signal -100; GFP signal change (wild-type ribosome), % (test concentration not listed); hit rate 1.6% among 350,000; AID 720706, 2013;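 active means significant combined selectivity score with lowered wild-type GFP, culture density cut under 30%, mutant RFP and density less affected; inactive means any of these conditions unmet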; further: one replicate is shown; some compounds called inactive have numbers as strong as hits
# rRNA inh HTS OD600 – second read-out of rRNA inh HTS, no call of its own (marks repeat the call); OD600 change, %; measured here: OD600 growth;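 optical density of the mix in the first replicate; 0 = DMSO median and -100 = no signal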
# rRNA inh HTS RFP – further read-out of rRNA inh HTS, marked with its call; RFP signal change, %; measured here: RFP humanized mutant strains;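 first replicate; 0 = DMSO median and -100 = no signal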
# * hit, by the source's call; i = inactive; . = not tested or not shown. Some of the compounds tested, so the mix of outcomes need not match the whole.
# Preview (six entries):
molecule,E coli growth,Vif A3G,MLL AF4-AF9 inh,HNF4A DNA FP,rRNA inh HTS OD600,rRNA inh HTS,FGF22 binding,ALR H2O2 inh,rRNA inh HTS RFP
O=C(/C=C/c1ccc2c(c1)OCCCO2)c1ccc2ccccc2c1O,0.73,-3%,-0.7,-0.1,.,.,.,-14,.
CCCCCc1c(C)nc(N2CCc3ccccc32)[nH]c1=O,0.78,-10%,.,-0.2,.,.,.,.,.
CN1CCN(C(=O)c2ccc(C(C)(C)C)cc2)CC1,0.72,3%,.,0.4,.,.,.,4,.
COc1ccc(N2C(=O)CS/C2=C\[N+](=O)[O-])cc1,0.63,-2%,.,2.3,.,.,.,63,.
C[C@@H]1CN([C@H](C)CO)C(=O)c2cc(/C=C/c3ccccc3)cnc2O[C@H]1CN(C)Cc1cccnc1,.,.,6.6,.,-1,0,i,.,-1.5
Cc1[nH]c2ccccc2c1C1C(c2ccccc2)=NN=C(C(C)C)N1O (centres undefined),0.7,11%,.,2.8,.,.,.,.,.

# All compounds of this part, from the start:
molecule,E coli growth,Vif A3G,MLL AF4-AF9 inh,HNF4A DNA FP,rRNA inh HTS OD600,rRNA inh HTS,FGF22 binding,ALR H2O2 inh,rRNA inh HTS RFP
O=C(/C=C/c1ccc2c(c1)OCCCO2)c1ccc2ccccc2c1O,0.73,-3%,-0.7,-0.1,.,.,.,-14,.
CCCCCc1c(C)nc(N2CCc3ccccc32)[nH]c1=O,0.78,-10%,.,-0.2,.,.,.,.,.
CN1CCN(C(=O)c2ccc(C(C)(C)C)cc2)CC1,0.72,3%,.,0.4,.,.,.,4,.
COc1ccc(N2C(=O)CS/C2=C\[N+](=O)[O-])cc1,0.63,-2%,.,2.3,.,.,.,63,.
C[C@@H]1CN([C@H](C)CO)C(=O)c2cc(/C=C/c3ccccc3)cnc2O[C@H]1CN(C)Cc1cccnc1,.,.,6.6,.,-1,0,i,.,-1.5
Cc1[nH]c2ccccc2c1C1C(c2ccccc2)=NN=C(C(C)C)N1O (centres undefined),0.7,11%,.,2.8,.,.,.,.,.
COc1ccc(N2C(S)=C(C#N)C(=O)NC23CCCCC3)cc1,0.65,15%,-3.2,-1.9,9,7,i,17,-1.3
C=CCc1cccc(CNc2nc3ccccc3n2CCC)c1O,0.7,-2%,.,0.9,.,.,.,-4,.
CC(C)n1nc(C(=O)OCn2nnc3ccccc3c2=O)c2ccccc2c1=O,0.66,.,.,-6.6,.,.,.,12,.
O=C(c1ccccc1[N+](=O)[O-])N1CCCC(C(=O)N2CCCCCC2)C1 (centres undefined),0.69,.,1.3,0.8,-5,5,i,-2,-1.1
Cc1ccc(NC(=O)c2cccc(C(F)(F)F)c2)cc1NC(=O)c1[nH]cnc1C(N)=O,0.7,.,2.2,-0.2,14,9,i,-2,3.2
CCN1C(=O)N(c2ccc(Cl)cc2)C(C)=CC1(C)C,0.71,7%,.,2.9,.,.,.,-12,.

# (list continues)
molecule,E coli growth,Vif A3G,MLL AF4-AF9 inh,HNF4A DNA FP,rRNA inh HTS OD600,rRNA inh HTS,FGF22 binding,ALR H2O2 inh,rRNA inh HTS RFP
CCOc1cc(N2CCOCC2)c(OCC)cc1NC(=O)c1ccc2ncsc2c1,0.62,20%,6.5,-0.6,.,.,i,.,.
Cc1ccc(Cn2c(=O)c3c(ncn3C)n(C)c2=O)cc1,0.62,7%,-1.4,-3.4,3,4,i,-10,-1.2
COc1ccc(-n2c(-c3ccco3)n[nH]c2=S)cc1,0.66,2%,.,3.1,.,.,.,95*,.
Cc1oc2c(Cl)c(Cl)c(O)c(CN(C)C)c2c1C(=O)c1ccc(Cl)cc1,0.65,.,13,-1.6,-62,-35,i,-33,8.9
COc1ccc([C@H]2C[C@@H](O)[C@H](n3cc(COC(=O)c4ccccc4)nn3)CN2CC2CCCCC2)cc1,.,-5%,1.8,3.6,3,2,i,.,-0.3
C[C@H](NC(=O)Cc1cccc2ccccc12)C(=O)N1CCCN(C)CC1,0.7,.,1.6,1.0,7,15,i,-1,-2.3
Nc1ccc2c(c1)nc(Cc1ccccc1)n2CCO,0.73,8%,-0.8,2.5,2,4,i,97*,1.4
CCOC(=O)C1CCN(C(=O)Nc2ccc3nc(-c4ccco4)c(-c4ccco4)nc3c2)CC1,0.75,<0.43µM*,.,-9.9,.,.,.,-19,.
N#C[C@H]1[C@H](c2ccc(C#Cc3ccc(F)cc3)cc2)[C@H](CO)N1C(=O)C1CCCC1,.,.,-2.9,.,0,0,i,.,0.0
O=C(Nc1ccccc1C(=O)N1CCCCC1)c1ccc(Cl)cc1Cl,0.7,.,2.8,-0.6,-10,2,i,.,-2.9
O=C(C[C@@H]1CC[C@@H]2[C@H](COC[C@H](O)CN2C(=O)Cc2ccccc2)O1)NC1CCCC1,.,.,-0.2,.,3,4,i,.,-3.5
Cc1ccc2c(c1)N(CCCC(=O)NCCCN1CCCCC1)C(=O)CO2,0.8,.,2.6,1.1,4,5,i,-18,1.1

# (next part)
molecule,E coli growth,Vif A3G,MLL AF4-AF9 inh,HNF4A DNA FP,rRNA inh HTS OD600,rRNA inh HTS,FGF22 binding,ALR H2O2 inh,rRNA inh HTS RFP
O=C(Nc1nc2cc3c(cc2s1)OCCO3)c1ccc([N+](=O)[O-])o1,0.68,2%,-0.3,-4.2,14,5,i,-31,-1.7
CC(C)NC(=O)c1ccc2c(c1)N(CC(=O)N1CCCCC1)C(=O)C(C)(C)O2,0.66,.,-5.7,0.8,6,3,i,.,-2.2
COc1ccccc1NCC(=O)NNCC(=O)Nc1ccc(F)c(Cl)c1,0.66,8%,2.2,1.7,-25,-18,i,64,-0.8
NC(=O)c1ccc[n+](CC(=O)c2cccc([N+](=O)[O-])c2)c1,0.66,-5%,-0.2,8.3,8,12,i,-7,0.9
COCC(=O)N[C@H]1C=C[C@H](CC(=O)N2CCCCC2)O[C@H]1CO,.,.,-1.4,.,2,0,i,.,0.3
CN(C)N1C(=O)C2C3C=CC(O3)C2C1=O (centres undefined),0.7,-9%,-1.7,-1.5,13,13,i,.,1.9
Cc1ccn(C(C)CC(=O)Nc2ccc(-c3ccno3)cc2)n1 (centres undefined),.,.,-0.4,-0.8,-5,-5,i,-1,-0.1
C[C@@H]1CN([C@@H](C)CO)C(=O)c2cccc(N(C)C)c2O[C@H]1CN(C)C(=O)Nc1ccc2c(c1)OCO2,.,.,1.0,.,2,-2,i,.,0.7
CCOC(=O)CNC(=O)CSc1nnc(C)c(=O)[nH]1,0.71,1%,-0.9,1.9,.,.,i,2,.
O=C(c1ccc(Sc2ccc(F)cc2)c([N+](=O)[O-])c1)N1CCOCC1,0.71,13%,2.9,-4.0,-4,1,i,-17,1.7
CCn1c(CNC(=O)c2ccco2)nnc1SCC(=O)Nc1cc(F)ccc1C,0.68,.,-3.2,3.2,12,9,i,.,-0.9
Cc1ccccc1OCC(=O)NNC(=O)c1ccc2c(=O)n3c(nc2c1)CCC3,0.68,4%,-0.5,-1.7,-4,-5,i,-3,-0.1

# Further compounds:
molecule,E coli growth,Vif A3G,MLL AF4-AF9 inh,HNF4A DNA FP,rRNA inh HTS OD600,rRNA inh HTS,FGF22 binding,ALR H2O2 inh,rRNA inh HTS RFP
CC(=O)Nc1nnc(SCC(=O)NC(C)(C)C)s1,0.7,4%,0.0,0.0,3,9,i,-7,2.6
COc1cccc(CN2CCNC(=O)C2CC(=O)NCc2cn3ccccc3n2)c1OC (centres undefined),0.67,8%,-0.6,-3.0,22,32,i,-62,9.4
CCN1CCN(c2cc(C)c3cc(NC(=S)NCCCOC)ccc3n2)CC1,0.69,-5%,-2.2,-3.2,0,-1,i,-14,-10
Cc1ccc(OCc2cc(C(=O)N3CCN(c4ccccc4)CC3)no2)cc1C,0.69,-4%,0.4,1.7,2,-1,i,-4,-3.2
C[C@@H]1CN([C@H](C)CO)C(=O)Cc2cc(NC(=O)CCN3CCOCC3)ccc2O[C@H]1CN(C)S(=O)(=O)c1ccc(Cl)cc1,.,.,1.4,.,7,2,i,.,-4.6
O=S(=O)(N[C@H]1CC[C@@H](CCn2cc(-c3ccccn3)nn2)O[C@H]1CO)c1cccc(F)c1,.,.,0.3,.,-4,-3,i,.,-5.6
CCCCNC(=O)CNC(=O)c1nn(-c2ccc(OC)cc2)c(=O)c2ccccc12,0.67,-3%,-1.1,0.4,-3,1,i,-3,0.5
CC(C)CC(NC(N)=O)C(=O)NCc1ccccc1Cl (centres undefined),0.65,-5%,1.8,4.4,-4,7,i,0,0.4
O=C1CCn2c1c(O)c1ccccc1c2=O,.,-1%,0.6,-11,2,5,i,.,0.8
Cc1cc(NC(=O)CCC(=O)N(c2cccnc2)C(C(=O)NC2CCCC2)c2ccccc2F)no1 (centres undefined),0.73,7%,.,.,.,.,.,-6,.
Cc1ccc(NS(=O)(=O)c2ccc(N3CCN(c4ccc(O)cc4)CC3)c([N+](=O)[O-])c2)c(C)c1,0.7,.,19,-0.4,-13,-17,i,4,9.9
COc1cccc(CNC(=O)CCn2ccc3cc(S(=O)(=O)N4CCC(C)CC4)ccc32)c1,0.69,.,-1.0,2.0,-7,-4,i,-6,-0.3

# (further entries)
molecule,E coli growth,Vif A3G,MLL AF4-AF9 inh,HNF4A DNA FP,rRNA inh HTS OD600,rRNA inh HTS,FGF22 binding,ALR H2O2 inh,rRNA inh HTS RFP
COCCN(CCOC)Cc1cc(=O)oc2cc(C)c(C)cc12,.,.,-1.4,-1.4,6,12,i,.,3.1
O=C(Cc1ccc(Br)cc1)N1CCN(c2ccc(F)cc2)CC1,0.76,3%,.,-1.2,.,.,.,.,.
CCc1c(-c2ccccc2OC)ncn1Cc1cccc(-c2ccccc2)c1,.,.,.,-1.4,-76,-49,i,.,-10
Cc1ccc(NC(=O)N2CCC(NC(=O)c3ccco3)CC2)cc1,0.6,.,3.2,1.5,-10,2,.,30,0.1
C[C@H](CO)N1C[C@H](C)[C@@H](CN(C)Cc2ccc(C(F)(F)F)cc2)Oc2c(NC(=O)Nc3ccc4c(c3)OCO4)cccc2C1=O,.,.,1.2,.,4,0,i,.,1.7
CCCOc1ccc(C(=O)NCCN2CCOCC2)cc1,0.62,3%,-4.9,-0.1,14,16,i,-6,2.9
Fc1ccc(-c2cc(-c3nnc4n3CCCCC4)c3ccccc3n2)cc1,0.72,6%,-4.4,0.8,8,6,i,-12,8.3
CCN1C(=O)/C(=C/c2cccs2)S/C1=N\S(=O)(=O)c1ccc(C)cc1,.,.,2.6,0.6,14,17,i,-4,0.2
COc1ccc(CCNC(=O)C(=O)NCC2OCCN2S(=O)(=O)c2cc(F)ccc2F)cc1OC (centres undefined),0.75,.,-3.4,-1.9,-6,-2,i,.,-1.1
Cc1ccc(SC2=C[C@@]3(O)CC[C@@H](O)[C@@](Sc4ccc(C)cc4)(C2=O)[C@H]3O)cc1,.,.,-2.3,-1.7,-15*,-25*,i,.,5.5*
CC(=O)Nc1ccc(S(=O)(=O)N2CCCCC2c2cccnc2)cc1 (centres undefined),0.69,-4%,.,-1.4,.,.,.,6,.
O=C(CC(=O)Nc1ccccc1)Nc1ccccc1,0.69,.,0.8,0.7,19,10,i,-1,0.5
C=CCn1c(NCCO)nc2c1c(=O)n(C)c(=O)n2C,0.69,31%,.,-2.1,.,.,.,-1,.

# Screens deposited in PubChem BioAssay by several laboratories.
